Vaccinia inh – blocks a specific stage of Vaccinia orthopoxvirus infection, primary screen, cell-based, single point. Vaccinia-infected cells, mCherry/Venus stage reporter fluorescence; active compounds read low; some inactives read as strong as hits. 0.01% of 89,000 active. activity change (mCherry), % (concentration not given with the values);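 active = mCherry past -33% and 40 or more points under the early reporter, replicates agreeing; inconclusive = past -33% without that gap or agreement; tested in A549 cells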;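 also: scaled between vehicle wells and reference inhibitor wells; 23 nL library stock went into each well; one replicate is shown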
Vaccinia inh Venus – second read-out of Vaccinia inh, no call of its own (marks repeat the call); activity change (Venus), %; measured here: Venus reporter, other viral stage;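 negative = less Venus signal; first of two replicates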
* hit, by the source's call; ? = inconclusive; · = not tested or not shown. An excerpt. The share of hits here may be higher or lower than overall.

SMILES	Vaccinia inh	Vaccinia inh Venus
C[C@H]1CN([C@@H](C)CO)C(=O)c2cc(NC(=O)CCCN(C)C)ccc2O[C@@H]1CN(C)CC1CC1	1	0
COc1cccc(-c2ccc3c(c2)[C@H]2[C@H](CCN2C(=O)NC2CCCCC2)[C@@H](CO)N3C)c1	?	·
Cc1noc(C)c1NC(=O)N(C)C[C@@H]1Oc2ccc(NC(=O)Nc3ccccc3)cc2CC(=O)N([C@@H](C)CO)C[C@H]1C	2	10
C[C@H](CO)N1C[C@H](C)[C@@H](CN(C)Cc2ccc(C(=O)Nc3ccccc3N)cc2)Oc2ccc(NC(=O)c3ccncc3)cc2C1=O	19	3
CC=Cc1ccc2n(c1=O)C[C@@H]1[C@@H](CO)[C@H](C(=O)NCCc3cn(C)cn3)[C@H]2N1C(=O)CC1CC1 (mixture of isomers)	47	19
C[C@@H]1CN([C@H](C)CO)C(=O)c2cc(NC(=O)CCCN(C)C)ccc2O[C@@H](C)CCCCO[C@@H]1CN(C)S(C)(=O)=O	6	3
C[C@@H]1CCCCO[C@@H](CN(C)Cc2ccc(C(=O)O)cc2)[C@H](C)CN([C@@H](C)CO)C(=O)c2cc(NC(=O)Nc3ccc(F)cc3)ccc2O1	12	3
C[C@H](CO)N1C[C@H](C)[C@@H](CN(C)C(=O)Nc2ccc(C(C)(C)C)cc2)OCc2cnnn2CCCC1=O	12	10
C[C@H](CO)N1C[C@H](C)[C@H](CN(C)Cc2ccc(Cl)c(Cl)c2)Oc2c(NC(=O)C3CCOCC3)cccc2C1=O	-9	-3
Cc1noc(C)c1NC(=O)Nc1cccc2c1O[C@H](CN(C)Cc1ccc(Cl)c(Cl)c1)[C@H](C)CN([C@@H](C)CO)C2=O	-9	-16
CC=Cc1ccc2n(c1=O)C[C@H]1[C@H](CO)[C@@H](C(=O)Nc3ccc(-c4ccccc4)cc3)N(CC)[C@@H]21 (mixture of isomers)	-22	-8
N#C[C@@H]1[C@H](c2ccccc2C2=CCCC2)[C@@H](CO)N1C(=O)C1CCCC1	-8	-1
O=C(NCc1cc(F)cc(F)c1)[C@H]1[C@H](CO)[C@H]2Cn3c(cccc3=O)[C@@H]1N2C(=O)c1ccccn1	25	20
COCC(=O)N1CC2(C1)[C@H](c1ccc(-c3cccc(C)c3)cc1)[C@H](CO)N2C(=O)C1CC1	-13	-1
COCCNC(=O)C[C@@H]1CC[C@@H]2[C@H](COc3ccc(NC(=O)COC)cc3C(=O)N2C)O1	2	-3
C[C@H]1CN([C@@H](C)CO)C(=O)c2cc(C3=CCCCC3)cnc2O[C@H]1CN(C)C(=O)c1cccnc1	-4	-8
CO[C@@H]1CN(C)C(=O)c2ccc(NS(C)(=O)=O)cc2OC[C@H](C)N(C)C[C@@H]1C	-8	-8
CC(=O)Nc1ccc2c(c1)C(=O)N(C)[C@H]1CC[C@H](CC(=O)Nc3c(F)cccc3F)O[C@@H]1CO2	7	11
N#C[C@H]1[C@@H](c2ccc(C3=CCCCC3)cc2)[C@H](CO)N1C(=O)NC1CCCCC1	?	·
Cc1noc(C)c1S(=O)(=O)Nc1ccc2c(c1)C(=O)N([C@H](C)CO)C[C@H](C)[C@H](CN(C)C(=O)NC1CCCCC1)OCCCC[C@@H](C)O2	20	12
COc1ccc(NC(=O)N(C)C[C@H]2OCCCC[C@H](C)Oc3ccc(NC(=O)Nc4ccc(C(F)(F)F)cc4)cc3C(=O)N([C@@H](C)CO)C[C@H]2C)cc1	13	6
C[C@@H]1CN([C@@H](C)CO)S(=O)(=O)c2ccc(C#CC3CC3)cc2O[C@H]1CN(C)C(=O)C1CC1	-12	-21
O=C(NCC[C@H]1CC[C@H](NS(=O)(=O)c2ccc(Cl)cc2)[C@@H](CO)O1)c1ccccc1F	6	-6
CCCNC(=O)C[C@H]1CC[C@H]2[C@H](COc3ccc(NC(=O)c4ccc(C(F)(F)F)cc4)cc3C(=O)N2C)O1	-24	-18
C[C@H](O)C#Cc1cnc2c(c1)C(=O)N([C@@H](C)CO)C[C@H](C)[C@@H](CN(C)Cc1cncnc1)O2	2	3

Remaining list, next part
SMILES	Vaccinia inh	Vaccinia inh Venus
C[C@H]1CN([C@@H](C)CO)S(=O)(=O)c2ccc(-c3cccc(C#N)c3)cc2O[C@H]1CN(C)C(=O)Nc1ccccc1F	-29	-31
O=C(C[C@@H]1C=C[C@H](NC(=O)c2ccc(F)cc2)[C@@H](CO)O1)NCCc1ccccc1	-13	2
CC(C)NC(=O)N(C)C[C@@H]1Oc2ccc(NC(=O)CCN3CCOCC3)cc2CC(=O)N([C@@H](C)CO)C[C@@H]1C	9	18
C[C@@H]1CN([C@H](C)CO)C(=O)c2cc(NC(=O)C3CC3)ccc2O[C@@H]1CN(C)C(=O)Nc1ccc(F)cc1	14	10
C[C@@H]1CN([C@@H](C)CO)C(=O)c2cc(N(C)C)ccc2O[C@@H]1CN(C)Cc1ccccc1	-2	-2
O=C(C[C@H]1C=C[C@@H](NC(=O)CN2CCOCC2)[C@H](CO)O1)NCCc1ccccc1	20	15
Cc1ccc(-c2ccc([C@H]3[C@H](CO)N4C(=O)CN(C(=O)NC(C)C)C[C@@H]34)cc2)cc1	-3	5
C[C@H](CO)N1C[C@H](C)[C@H](CN(C)Cc2ccc(C(F)(F)F)cc2)OCCCC[C@H](C)Oc2ccc(NS(=O)(=O)c3cn(C)cn3)cc2C1=O	0	3
N#C[C@@H]1[C@H](c2ccccc2-c2cccc(F)c2)[C@H](CO)N1C(=O)NC1CCCC1	-11	-4
CO[C@@H]1CN(C)C(=O)c2ccc(NC(=O)C3CC3)cc2OC[C@@H](C)N(C(=O)C2CCOCC2)C[C@H]1C	7	8
COc1ccc(S(=O)(=O)Nc2ccc3c(c2)C(=O)N([C@@H](C)CO)C[C@H](C)[C@H](CN(C)Cc2ccc(C(=O)O)cc2)OCCCC[C@H](C)O3)cc1	53	24
C[C@@H]1CN([C@@H](C)CO)C(=O)c2cc(NC(=O)NC3CCCCC3)ccc2O[C@@H](C)CCCCO[C@H]1CN(C)C(=O)C1CCCCC1	?	·
N#C[C@H]1[C@@H](c2ccccc2-c2cccc(F)c2)[C@@H](CO)N1C(=O)Cc1cccnc1	-24	-17
COc1cccc(S(=O)(=O)N(C)C[C@H]2OCc3cnnn3CCCC(=O)N([C@@H](C)CO)C[C@H]2C)c1	5	2
CCCNC(=O)N1CCC2(CC1)CN(C(=O)CC)[C@@H](CO)c1c2c2ccc(OC)cc2n1C	6	5
CC(=O)NC[C@@H]1[C@@H](c2ccc(-c3ccccc3)cc2)[C@H](CO)N1C(=O)C1CCC1	-10	-2
c1cc(-c2ccc(C3[C@H]4CNC[C@@H]3N4CC3CCCCC3)cc2)ccn1 (some centres undefined)	10	9
Cc1ccc(S(=O)(=O)N(C)C[C@H]2Oc3cc(C#CC4CCCC4)ccc3S(=O)(=O)N([C@@H](C)CO)C[C@H]2C)cc1	?	·
O=C(C[C@H]1C[C@H]2c3cc(NC(=O)c4ccc5c(c4)OCO5)ccc3O[C@H]2[C@@H](CO)O1)NCCN1CCCCC1	4	10
Cc1noc(C)c1S(=O)(=O)N(C)C[C@@H]1Oc2ccc(NC(=O)C3CCCCC3)cc2CC(=O)N([C@@H](C)CO)C[C@@H]1C	-2	-4
CCCNC(=O)C[C@@H]1C[C@@H]2c3cc(NC(=O)CC4CC4)ccc3O[C@@H]2[C@@H](CO)O1	11	11
Cc1noc(C)c1S(=O)(=O)Nc1cccc2c1O[C@@H](CN(C)C(=O)Nc1ccc(C(F)(F)F)cc1)[C@@H](C)CN([C@H](C)CO)C2=O	-21	-9
Cc1ccc(-c2ccc([C@H]3[C@H](CO)N4CCCCN(C(=O)c5ccc(F)cc5)C[C@@H]34)cc2)cc1	-22	-17
CO[C@@H]1CN(C)C(=O)c2ccc(NC(=O)Nc3ccccc3F)cc2OC[C@H](C)N(C(C)=O)C[C@@H]1C	20	3
CCC(=O)N1[C@H](CO)[C@@H](c2ccccc2)[C@@H]1CN(CC)C(=O)NC1CCCC1	5	10

7 entries from above, set out differently.
The line under a structure holds: Vaccinia inh | Vaccinia inh Venus
> c1cc(-c2ccc(C3[C@H]4CNC[C@@H]3N4CC3CCCCC3)cc2)ccn1 (some centres undefined)
    10 | 9
> Cc1ccc(S(=O)(=O)N(C)C[C@H]2Oc3cc(C#CC4CCCC4)ccc3S(=O)(=O)N([C@@H](C)CO)C[C@H]2C)cc1
    ? | ·
> O=C(C[C@H]1C[C@H]2c3cc(NC(=O)c4ccc5c(c4)OCO5)ccc3O[C@H]2[C@@H](CO)O1)NCCN1CCCCC1
    4 | 10
> Cc1noc(C)c1S(=O)(=O)N(C)C[C@@H]1Oc2ccc(NC(=O)C3CCCCC3)cc2CC(=O)N([C@@H](C)CO)C[C@@H]1C
    -2 | -4
> CCCNC(=O)C[C@@H]1C[C@@H]2c3cc(NC(=O)CC4CC4)ccc3O[C@@H]2[C@@H](CO)O1
    11 | 11
> Cc1noc(C)c1S(=O)(=O)Nc1cccc2c1O[C@@H](CN(C)C(=O)Nc1ccc(C(F)(F)F)cc1)[C@@H](C)CN([C@H](C)CO)C2=O
    -21 | -9
> Cc1ccc(-c2ccc([C@H]3[C@H](CO)N4CCCCN(C(=O)c5ccc(F)cc5)C[C@@H]34)cc2)cc1
    -22 | -17

Two entries picked at random from those above:
SMILES	Vaccinia inh	Vaccinia inh Venus
Cc1noc(C)c1S(=O)(=O)N(C)C[C@@H]1Oc2ccc(NC(=O)C3CCCCC3)cc2CC(=O)N([C@@H](C)CO)C[C@@H]1C	-2	-4
Cc1noc(C)c1S(=O)(=O)Nc1cccc2c1O[C@@H](CN(C)C(=O)Nc1ccc(C(F)(F)F)cc1)[C@@H](C)CN([C@H](C)CO)C2=O	-21	-9

The listing continues:
SMILES	Vaccinia inh	Vaccinia inh Venus
O=C(C[C@H]1CC[C@H]2[C@@H](COC[C@H](O)CN2CC2CC2)O1)NCC1CC1	6	6
COCc1cn(CC[C@@H]2CC[C@H](NC(=O)c3ccc(F)cc3)[C@@H](CO)O2)nn1	6	11
C[C@H]1CN([C@@H](C)CO)C(=O)c2cc(NC(=O)CCN3CCOCC3)ccc2O[C@H]1CN(C)CC1CC1	26	17
CN1C(=O)N[C@@H]2c3ccccc3O[C@@]1(C)[C@@H]2CO	9	1
COc1ccc(NC(=O)N(C)C[C@H]2Oc3c(NC(=O)C4CC4)cccc3C(=O)N([C@@H](C)CO)C[C@H]2C)cc1	-1	9
C[C@H]1CN([C@@H](C)CO)C(=O)c2cccc(NC(=O)c3ccncc3)c2O[C@H]1CN(C)Cc1ccccc1	10	13
O=C(Nc1ccc2c(c1)[C@H]1C[C@@H](CC(=O)N3CCc4ccccc4C3)O[C@H](CO)[C@H]1O2)Nc1ccccc1F	-33	-23
CCC(=O)N(C)C[C@@H]1Oc2cc(-c3ccccc3F)ccc2S(=O)(=O)N([C@@H](C)CO)C[C@H]1C	0	-1
O=C(Nc1cccc(F)c1)N1CC(=O)N2[C@@H](CO)[C@@H](c3ccc(-c4cccc(F)c4)cc3)[C@@H]2C1	?	·
C[C@H](CO)N1C[C@H](C)[C@@H](CN(C)C(=O)Nc2ccccc2)Oc2ncc(Br)cc2C1=O	10	8
C[C@H](CO)N1C[C@H](C)[C@@H](CN(C)C(=O)Nc2ccc(C(F)(F)F)cc2)Oc2c(NS(=O)(=O)c3cccs3)cccc2C1=O	7	3
C[C@@H]1CN([C@@H](C)CO)C(=O)c2cc(NC(=O)Nc3cccc4ccccc34)ccc2O[C@H]1CN(C)Cc1ccc(C(=O)O)cc1	13	10
C[C@H]1CN([C@@H](C)CO)C(=O)c2cc(/C=C/c3ccccc3)cnc2O[C@H]1CN(C)Cc1cncnc1	-14	-9
CCC(=O)N1[C@@H]2CN(C(=O)Nc3cccc(Cl)c3)c3ccccc3[C@@H]2[C@@H]1CO	16	13
Cc1ccc(S(=O)(=O)N[C@H]2CC[C@H](CCn3cc(C4CCCCC4)nn3)O[C@@H]2CO)cc1	-15	-7
O=C(C[C@H]1CC[C@H](NC(=O)C2CCC2)[C@H](CO)O1)NC1CCC1	-9	10
CO[C@H]1CN(C)C(=O)c2cc(NC(C)=O)ccc2OC[C@@H](C)N(Cc2cccc(F)c2)C[C@@H]1C	-14	-10
COc1ccc(CN(C)C[C@@H]2Oc3ccc(NS(=O)(=O)c4ccccc4)cc3CC(=O)N([C@H](C)CO)C[C@@H]2C)cc1	-1	-4
CC(C)(O)C#Cc1ccc([C@H]2[C@@H](CO)N3CCCCN(C(=O)c4cccc(F)c4)C[C@H]23)cc1	24	18
CO[C@H]1CN(C)C(=O)c2cc(NC(=O)Nc3ccc(Cl)cc3)ccc2OC[C@H](C)N(C)C[C@H]1C	-8	-13
CC(=O)N(C[C@@H]1N[C@@H](CO)[C@@H]1c1ccc(-c2ccc(F)cc2)cc1)C(C)C	-20	0
O=C(c1ccncc1)N1C[C@H]2[C@@H](c3ccccc31)[C@@H](CO)N2C(=O)Nc1ccccc1Cl	13	18
CCCNC(=O)N1CC2(C1)[C@@H](c1ccccc1)[C@@H](CO)N2CC1CCCC1	?	·
CCc1cnc(N2[C@H](C#N)[C@H](c3ccccc3)[C@@H]2CO)s1	-13	-5
COc1ccc(NC(=O)C[C@H]2CC[C@H]3[C@@H](COc4ccc(NC(C)=O)cc4C(=O)N3C)O2)cc1	4	10
CN(C)CCCNC(=O)C[C@H]1CC[C@H]2[C@H](COc3ccc(NC(=O)c4ccc5c(c4)OCO5)cc3C(=O)N2C)O1	7	1
C[C@@H]1CN([C@H](C)CO)C(=O)c2cc(NC(=O)Nc3cccc4ccccc34)ccc2O[C@H]1CN(C)S(=O)(=O)c1cccs1	38	27
CCCNC(=O)[C@@H]1[C@@H](CO)[C@@H]2Cn3c(ccc(-c4ccc(F)cc4)c3=O)[C@@H]2N1C	16	11
CC(C)COC(=O)N(C)C[C@H]1OCc2ccccc2-c2c(n(C)c3ccccc23)C(=O)N([C@@H](C)CO)C[C@H]1C	?	·
C[C@H](CO)N1C[C@H](C)[C@@H](CN(C)Cc2ccc(C(=O)O)cc2)Oc2ccc(NC(=O)C3CC3)cc2C1=O	6	3

Bioassay records from PubChem.
